SARS PLpro yeast – inhibitors of SARS-CoV papain-like protease in yeast; S. cerevisiae expressing SARS-CoV PLpro, growth rescue; control for the full effect not named in the record; Potency, µM (top dose mostly 32.9 µM), for the others: at the top dose activity, positive = growth rescue; hit rate 0.19% among 330,000; active means well fitted rising curve with a large enough effect; inconclusive means small, poorly fitted or top-dose-only effect; inactive means no such curve, though single readings can be large or run the other way; also: 0% is about no effect; nearly all actives have a fitted effect of over 55% in size; growth read by luminescence after 48 h
2A StopGo – FMDV 2A StopGo reporter, luciferase signal; human cells with a luciferase reporter of 2A StopGo recoding; control for the full effect not named in the record; Potency, µM (series often up to 57.9 µM), for the others: at the highest dose signal change, negative = less light; hit rate 1.2% among 410,000; AID 1159524; active = well fitted falling curve with a large enough effect; inconclusive = small, poorly fitted or top-dose-only effect; inactive = no such curve, though single readings can be large or run the other way; tested in HEK293T cells; also: % is scaled to controls: 0 for no effect and ±100 for the full control effect; nearly all actives have a fitted effect of over 45% in size; luciferase light after 4 h
Lassa entry inh – blocks Lassa virus binding to or entry into cells. Lassa virus pseudotype entry inhibition, cell reporter; control for the full effect not named in the record. hit rate 1.2% among 300,000. AID 540256. Potency, µM (highest dose often 37.9 µM), for the others: top-dose activity change, negative = inhibition, most hits filed as inhibitors; active means well fitted inhibition curve with a large enough effect; inconclusive means small, poorly fitted or top-dose-only effect, or effect the other way; inactive means flat fitted curve, though single readings scatter; tested in HEK293 cells; also: % is scaled to controls: 0 for no effect and ±100 for the full control effect; nearly all actives have a fitted effect of over 50% in size; luciferase read-out
RE007 growth inh – less growth of the S. pombe RE007 Vpr strain | Potency, µM (titrated, usually from 92.2 µM), without a hit: top-dose activity change, negative = less growth | S. pombe RE007 Vpr strain, BacTiter-Glo ATP luminescence, 24 h; control for the full effect not named in the record | hit rate 0.21% among 360,000; active = well fitted falling curve with a large enough effect; inconclusive = small, poorly fitted or top-dose-only effect; inactive = no such curve, though single readings can be large or run the other way;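 also: % is scaled to controls: 0 for no effect and ±100 for the full control effect; nearly all actives have a fitted effect of over 50% in size; the assay follows cell death caused by Vpr and the record does not say whether a fall means rescue or toxicity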
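Fission yeast RE007 carrying one integrated HIV-1 vpr copy, seeded at OD 0.01 in PMG+AL medium with 23 nL pinned compound. Grown 24 h at 30 degrees; viability read by BacTiter-Glo luminescence after 5 min.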
MARV entry inh – blocks Marburg virus binding to or entry into cells. Potency, µM (doses to about 37.8 µM), for inactives: at the highest dose activity change, negative = inhibition, hits mostly inhibitors. Marburg virus pseudotyped entry inhibition, cell reporter; control for the full effect not named in the record; about a third of the inactives were read at about 46 µM. AID 540276. hit rate 1.8% among 300,000; active = well fitted inhibition curve with a large enough effect; inconclusive = small, poorly fitted or top-dose-only effect, or effect the other way; inactive = flat fitted curve, though single readings scatter; tested in HEK293 cells; about a fifth of its hits are not listed in these tables; also: % is scaled to controls: 0 for no effect and ±100 for the full control effect; luciferase read-out
Starred values were filed as active, the others as inactive; ? = inconclusive; . = no result given; & = joins results of further samples; [ ] = another dose, or the depositor's remark. Potency is read from the fitted curve at half-maximal effect.

SMILES	SARS PLpro yeast	2A StopGo	Lassa entry inh	RE007 growth inh	MARV entry inh
COC(=O)c1cc(NC(=O)CC2C(=O)OCCN2Cc2ccccc2)cc(C(=O)OC)c1 (stereo not drawn)	.	-14%	21%[46.1 µM]	.	14%[46.1 µM]
CC(Sc1cn(CCNC(=O)c2ccccc2F)c2ccccc12)c1ccccc1 (stereo not drawn)	.	?	?	.	?
Cc1ccc2cccc(NC(=O)COc3ccccc3Cl)c2n1	.	-8%	1%[46.1 µM]	.	5%[46.1 µM]
Cc1ccc(-c2cc(C(F)(F)F)n3nc(C(=O)Nc4ccc(Cl)c(C(F)(F)F)c4)cc3n2)cc1	.	-14%	5%[46.1 µM]	.	7%[46.1 µM]
Nc1nc(SCc2ccc([N+](=O)[O-])cc2)c2ncn([C@@H]3O[C@H](CO)[C@@H](O)[C@H]3O)c2n1	.	-7%	?	.	20%
COC(=O)CC1Oc2ccc(C)cc2-n2cc(-c3ccc(F)cc3)nc21 (stereo not drawn)	.	0%	-27%[46.1 µM]	.	12%[46.1 µM]
CCOC(=O)c1c(NC(=O)CSc2cn(CCNC(=O)c3ccc(OC)cc3)c3ccccc23)sc2c1CCCC2	.	-25%	-1%[46.1 µM]	.	4%[46.1 µM]
Cc1cc(NC(=O)C(C)C)cc(-c2nc3ncccc3o2)c1O	.	-30%	-2%[46.1 µM]	.	-16%[46.1 µM]
COc1ccc(C(=O)NCCn2cc(SCc3cc(C)ccc3C)c3ccccc32)cc1	.	?	?	.	?
Cc1cccc(-n2c(N)cc(=O)nc2SCC(=O)Nc2ccc(F)cc2)c1C	.	-21%	1%[46.1 µM]	.	-4%[46.1 µM]
COc1ccc(C2=NN(S(C)(=O)=O)C(c3cn(-c4ccccc4)nc3-c3cccs3)C2)cc1 (stereo not drawn)	.	29%	15%[46.1 µM]	.	20%[46.1 µM]
CCN1CCOC(=O)C1CC(=O)Nc1cc(C)cc(C)c1 (stereo not drawn)	.	7%	-2%[46.1 µM]	.	-7%[46.1 µM]
CCCCC(=O)Nc1cc(C)c(O)c(-c2nc3ncccc3o2)c1	.	-11%	8%[46.1 µM]	.	4%[46.1 µM]
CCc1nn2c(-c3ccccc3OC)ccnc2c1-c1ccccc1	.	0%	?	.	-22%[46.1 µM]
CCOC(=O)Cc1c(C(=O)OCC)nnc2c(-c3ccccc3)c(C)nn12	.	-20%	-3%[46.1 µM]	.	-11%[46.1 µM]

Profiles, looked up by structure. Screens in order: SARS PLpro yeast, 2A StopGo, Lassa entry inh, RE007 growth inh, MARV entry inh
`Cc1cc(NC(=O)C(C)C)cc(-c2nc3ncccc3o2)c1O` in the list: ., -30%, -2%[46.1 µM], ., -16%[46.1 µM]
`COc1ccc(C(=O)NCCn2cc(SCc3cc(C)ccc3C)c3ccccc32)cc1` in the list: ., ?, ?, ., ?
`Nc1nc(SCc2ccc([N+](=O)[O-])cc2)c2ncn([C@@H]3O[C@H](CO)[C@@H](O)[C@H]3O)c2n1` in the list: ., -7%, ?, ., 20%
`CCCCC(=O)Nc1cc(C)c(O)c(-c2nc3ncccc3o2)c1` in the list: ., -11%, 8%[46.1 µM], ., 4%[46.1 µM]
`CC(Sc1cn(CCNC(=O)c2ccccc2F)c2ccccc12)c1ccccc1` (stereo not drawn) in the list: ., ?, ?, ., ?

Structures listed so far containing two or more sulfur atoms (2):
SMILES	SARS PLpro yeast	2A StopGo	Lassa entry inh	RE007 growth inh	MARV entry inh
CCOC(=O)c1c(NC(=O)CSc2cn(CCNC(=O)c3ccc(OC)cc3)c3ccccc23)sc2c1CCCC2	.	-25%	-1%[46.1 µM]	.	4%[46.1 µM]
COc1ccc(C2=NN(S(C)(=O)=O)C(c3cn(-c4ccccc4)nc3-c3cccs3)C2)cc1 (stereo not drawn)	.	29%	15%[46.1 µM]	.	20%[46.1 µM]

(listing goes on)
SMILES	SARS PLpro yeast	2A StopGo	Lassa entry inh	RE007 growth inh	MARV entry inh
COc1ccccc1-c1ccnc2c(-c3ccc(Br)cc3)c(C)nn12	.	2%	7%[46.1 µM]	.	?
O=C(NCCn1cc(SCc2ccccc2)c2ccccc21)c1cccs1	.	-71%	-27%[46.1 µM]	.	?
Nc1ncnc2c1ncn2[C@@H]1O[C@H](COP(=O)(O)CP(=O)(O)OP(=O)(O)O)[C@@H](O)[C@H]1O	.	0%	2%	.	3%
COc1ccc(-c2c(C)nn3c4c(cnc23)C(=O)CC(c2ccc(C)cc2)C4)cc1 (stereo not drawn)	.	0%	0%[46.1 µM]	.	?
CC(C)(C)c1ccc(C(=O)NC2(C(F)(F)F)C(=O)Nc3c2c(=O)[nH]c(=O)n3-c2ccccc2)cc1 (stereo not drawn)	.	-4%	0%[46.1 µM]	.	4%[46.1 µM]
Nc1nnc2c(n1)[nH]c1ccccc12	.	-11%	0%[46.1 µM]	.	21%[46.1 µM]
Cc1ccc2occ(-c3cc(-c4ccccc4)nc4c3COc3ccccc3-4)c(=O)c2c1	.	-23%	19%[46.1 µM]	.	10%[46.1 µM]
CC(=O)Nc1ccc(S(=O)(=O)NC2(C(F)(F)F)C(=O)Nc3c2c(=O)[nH]c(=O)n3-c2cccc(Cl)c2)cc1 (stereo not drawn)	.	-11%	1%[46.1 µM]	.	-1%[46.1 µM]
COc1ccc(C(=O)NCCn2cc(SCC(=O)Nc3ccc4c(c3)OCCO4)c3ccccc32)cc1OC	.	?	-27%[46.1 µM]	.	-9%[46.1 µM]
O=c1n(Cc2ccc(F)cc2)nc2n1-c1cc(Cl)ccc1OC2	.	-20%	28%[46.1 µM]	.	12%[46.1 µM]
COc1ccc(OC)c(NC(=O)Cn2cnc3ccc(S(=O)(=O)N4CCC(C)CC4)cc3c2=O)c1	.	-6%	-1%[46.1 µM]	.	?
O=C(CSc1cn(CCNC(=O)c2c(F)cccc2F)c2ccccc12)Nc1ccccc1F	.	-8%	-11%[46.1 µM]	.	?
CCOC(=O)c1cnc2ccc(OCC)cc2c1N1CCN(c2cccc(Cl)c2)CC1	.	?	-27%[46.1 µM]	.	12%[46.1 µM]
O=C(CSc1cn(CCNC(=O)c2ccccc2F)c2ccccc12)Nc1ccc(F)cc1	.	-18%	-8%[46.1 µM]	.	?
Cc1cc(NC(=O)C(C)(C)C)cc(-c2nc3ncccc3o2)c1O	.	-1%	-1%[46.1 µM]	.	-6%[46.1 µM]
COc1ccc(-c2cc(C(F)(F)F)n3nc(C(=O)Nc4cccc(Cl)c4C)cc3n2)cc1	.	-12%	?	.	?
COc1ccccc1C(=O)NCCn1cc(SCc2ccc(C)cc2)c2ccccc21	.	?	?	.	?
NC(=S)NCCC[C@H](N)C(=O)O	.	0%[146 µM]	-6%	.	0%&0%&0%
COC(=O)CC1Oc2ccc(Cl)cc2-n2cc(-c3ccccc3)nc21 (stereo not drawn)	.	?	-13%[46.1 µM]	.	?
Cc1ccc(-c2cc(-c3coc4ccccc4c3=O)c3c(n2)-c2ccccc2OC3)cc1	.	-14%	1%[46.1 µM]	.	?
CC(=O)Nc1ccc(S(=O)(=O)NC2=NCN(C(C)C)CN2)cc1	.	-1%	-14%[46.1 µM]	.	-24%[46.1 µM]
Cc1ccc(C)c(CSc2cn(CCNC(=O)c3cccs3)c3ccccc23)c1	.	?	?	.	?
COc1ccc(CCNC(=O)CSc2cn(CCNC(=O)c3ccc(OC)c(OC)c3)c3ccccc23)cc1OC	.	-13%	-23%[46.1 µM]	.	?
Cc1ccc(-c2cc3ncc4c(n3n2)-c2cc(C)ccc2OC4)cc1	.	-19%	2%[46.1 µM]	.	-6%[46.1 µM]
O=C(CSc1cn(CCNC(=O)c2ccccc2F)c2ccccc12)Nc1ccccc1F	.	-27%	-2%[46.1 µM]	.	-16%[46.1 µM]
CCOc1ccc(C(=O)NCCn2cc(SCC(=O)Nc3ccc4c(c3)OCCO4)c3ccccc32)cc1	.	-16%	?	.	-28%[46.1 µM]
O=C(Nc1cc(Cl)ccc1O)c1cc2nc(-c3ccc4c(c3)OCO4)cc(C(F)(F)F)n2n1	.	-6%	12%[46.1 µM]	.	2%[46.1 µM]
CCOC(=O)c1cnc2cc(C(F)(F)F)ccc2c1Nc1ccc(F)cc1F	.	-44%	11%[46.1 µM]	.	11%[46.1 µM]
CC(=O)Nc1ccc(S(=O)(=O)NC2(C(F)(F)F)C(=O)Nc3c2c(=O)[nH]c(=O)n3-c2ccc(C)cc2)cc1 (stereo not drawn)	.	-10%	-6%[46.1 µM]	.	-4%[46.1 µM]
COc1ccc(NC(=O)Cn2cnc3ccc(S(=O)(=O)N4CCC(C)CC4)cc3c2=O)cc1OC	.	-1%	-22%[46.1 µM]	.	-27%[46.1 µM]
COc1ccc(-c2cc(C(F)(F)F)n3nc(C(=O)Nc4cc(C(F)(F)F)ccc4Cl)cc3n2)cc1OC	.	-15%	0%[46.1 µM]	.	8%[46.1 µM]
Cc1ccc(-c2cc3ncc4c(n3n2)-c2ccccc2OC4)cc1	.	85%[activator]	1%[46.1 µM]	.	24%[46.1 µM]
COC(=O)CC1Oc2ccccc2-n2cc(-c3ccc(Cl)cc3)nc21 (stereo not drawn)	.	-8%	0%[46.1 µM]	.	18%[46.1 µM]
CCN1CCOC(=O)C1CC(=O)Nc1cc(Cl)ccc1OC (stereo not drawn)	.	0%	23%[46.1 µM]	.	-21%[46.1 µM]
COc1ccc(-c2cc(C(F)(F)F)n3nc(C(=O)Nc4cc(Cl)cc(Cl)c4)cc3n2)cc1	.	-18%	-2%[46.1 µM]	.	0%[46.1 µM]
COC(=O)CC1Oc2ccc(Cl)cc2-n2cc(-c3ccc(F)cc3)nc21 (stereo not drawn)	.	-1%	16%[46.1 µM]	.	-14%[46.1 µM]
COC(=O)c1c(C)[nH]c(C(=O)CN(C)CC(=O)Nc2cccc(F)c2)c1C	6%	8%	.	-14%	.
NC(=O)c1ccsc1NC(=O)c1ccc(S(=O)(=O)N2CCCC2)cc1	2%	3%	.	12%	.
COc1ccc(CNC(=O)CC2C[C@H](C(=O)N(C(C)C)C(C)C)[C@@]3(C)c4[nH]c5ccccc5c4CCN3C2=O)cc1OC (stereo partly drawn)	-1%	-22%	.	7%	.
CN(C)C(=O)CCc1ccc2c3c([nH]c2c1)[C@]1(C)[C@@H](C(=O)N2CCCCC2)C[C@H](CC(=O)NCc2cccc(C(F)(F)F)c2)C(=O)N1CC3	-7%	-22%	.	-7%	.
Cc1cccc(NC(=O)CN2CCN(C(=O)CNC(=O)Cc3cccc4ccccc34)CC2)c1C	1%	-3%	.	-1%	.
Cc1nn(CC(=O)OCCOc2ccc(Br)cc2)c(C)c1[N+](=O)[O-]	0%	-4%	.	20%	.
COCCN(C(=S)Nc1ccc(C(C)C)cc1)C(C)c1cccs1 (stereo not drawn)	0%	0%	.	21%	.
CC(Sc1nnc(Cc2ccccc2)o1)C(=O)Nc1ccccc1[N+](=O)[O-] (stereo not drawn)	-5%	-4%	.	7%	.
CCCn1c(SC(C)C(=O)NC2CC2)nnc1-c1ccncc1 (stereo not drawn)	3%	-13%	.	-7%	.
COc1cc(-c2noc(C)c2C(=O)NCCCN2CCCC2=O)cc(OC)c1OC	6%	9%	.	3%	.
CC1CCCC(NC(=O)NC(=O)COC(=O)c2ccc(O)cc2O)C1C (stereo not drawn)	2%	-29%	.	-4%	.
CCOC(=O)[C@H]1[C@H]2COc3ccc(Cl)cc3[C@@H]2N2C(=O)c3ccc(F)cc3NC(=O)[C@@]12C	6%	-28%	.	2%	.
N#C/C(=N\Nc1ccc(Br)cc1)C(=N)N1CCOCC1	-3%	82%[activator]	.	3%	.

Results in Lassa entry inh, 2A StopGo and MARV entry inh, for some of the entries so far:
mol | Lassa entry inh | 2A StopGo | MARV entry inh
COc1cc(-c2noc(C)c2C(=O)NCCCN2CCCC2=O)cc(OC)c1OC | . | 9% | .
CCOC(=O)[C@H]1[C@H]2COc3ccc(Cl)cc3[C@@H]2N2C(=O)c3ccc(F)cc3NC(=O)[C@@]12C | . | -28% | .

Only part of the results is shown. The share of hits here may be higher or lower than overall.
